Vaccinia mCherry: inhibitors of vaccinia virus infection (mCherry reporter signal). Vaccinia virus mCherry reporter infection, fluorescence; about a quarter of the inactives have no number. Potency, µM (doses to about 36.5 µM), for inactives: top-dose activity change, negative = inhibition, hits mostly inhibitors. hit rate 0.63% among 310,000; active = well fitted inhibition curve with a large enough effect; inconclusive = small, poorly fitted or top-dose-only effect; inactive = no such curve, though single readings can be large or run the other way; tested in A549 cells; further: nearly all actives have a fitted effect of over 35% in size; inactives centre near -10
Vaccinia Venus: inhibitors of vaccinia virus (Venus reporter); Vaccinia virus Venus reporter expression, fluorescence; Potency, µM (highest dose often 36.5 µM), without a hit: at the top dose activity change, negative = inhibition, actives largely listed as inhibitors; hit rate 0.46% among 330,000; AID 720580; active means well fitted inhibition curve with a large enough effect; inconclusive means small, poorly fitted or top-dose-only effect; inactive means no such curve, though single readings can be large or run the other way; tested in A549 cells; further: nearly all actives have a fitted effect of over 30% in size; inactives centre near -10
An asterisk follows results filed as active; i = inactive; ? = inconclusive; . = not tested or not shown; & = joins results of further samples; [ ] = dose if it differs, or a comment. On the % scale 0 is the no-effect control and ±100 the full control effect; potency means the concentration at half of the fitted maximal effect.

SMILES	Vaccinia mCherry	Vaccinia Venus
CCOC(=O)Cn1nc(C)c2ccccc2c1=O	i	-13%
CN(NS(=O)(=O)c1cccs1)c1ncc(C(F)(F)F)cc1Cl	i	-9%
CC(C)n1cnc2c(=S)nc[nH]c21	-10%	-3%
COc1ccc(-n2nc(C(=O)NCC(=O)N3CCC4(CC3)OCCO4)c3ccccc3c2=O)cc1	-2%	-6%
CC(C)OC(=O)NCN1C(=O)C2C3C=CC(C3)C2C1=O (centres undefined)	i	-2%
CCOc1ccc(-c2cc(C(=O)NCc3ccc(OCC)c(OC)c3)[nH]n2)cc1	-1%	-2%
COc1ccccc1N1CCN(C2CCN(C(=O)c3ccc(F)cc3)CC2)CC1	-12%	-13%
COc1ccc(NC(=O)CN(C)C(=O)CSc2nc3ccccc3s2)cc1	-7%	3%
CN1CCC(N2CCN(c3cccc(C(F)(F)F)c3)CC2)CC1	i	-9%
CC1CCN(Cc2nnnn2-c2cccc([N+](=O)[O-])c2)CC1	-18%	-7%
COc1cccc(/C=C2\C(=O)N(c3cccc(C)c3)C(=O)c3ccccc32)c1	i	-9%
Cc1c(NS(=O)(=O)c2cccc(C(=O)Nc3ccc(SC(F)F)cc3)c2)c(=O)n(-c2ccccc2)n1C	?	-30%
CCc1ccc(NC(=O)c2onc(C)c2Cl)cc1	-13%	-17%
C[C@@H]1CN([C@@H](C)CO)C(=O)c2cccc(NS(=O)(=O)c3ccc(F)cc3)c2O[C@H]1CN(C)C(=O)NC1CCCCC1	?	-7%
O=C(NC1=NCCS1)Nc1ccccc1	-10%	-14%
CCn1cc(C(=O)O)c(=O)c2cnc(N3CCN(C(=S)Nc4ccccc4C(F)(F)F)CC3)nc21	?	-8%
COc1ccc(S(=O)(=O)N(C)CC(=O)Nc2c(F)cccc2F)cc1	-20%	-7%
CCCNC(=O)C(CC)n1nc(CC)n2c(cc3oc(C)cc32)c1=O (centres undefined)	-14%	-15%
O=C(NCCCN1CCOCC1)C1CCN(S(=O)(=O)c2cccc(Cl)c2Cl)CC1	-5%	-16%
CCN(C(=O)c1ccco1)c1nnc(-c2ccc(OC)cc2)s1	-5%	-24%

15 of these compounds, set out differently.
| molecule | Vaccinia mCherry | Vaccinia Venus |
| --- | --- | --- |
| CC(C)n1cnc2c(=S)nc[nH]c21 | -10% | -3% |
| COc1ccc(-n2nc(C(=O)NCC(=O)N3CCC4(CC3)OCCO4)c3ccccc3c2=O)cc1 | -2% | -6% |
| CC(C)OC(=O)NCN1C(=O)C2C3C=CC(C3)C2C1=O (centres undefined) | i | -2% |
| CCOc1ccc(-c2cc(C(=O)NCc3ccc(OCC)c(OC)c3)[nH]n2)cc1 | -1% | -2% |
| COc1ccccc1N1CCN(C2CCN(C(=O)c3ccc(F)cc3)CC2)CC1 | -12% | -13% |
| COc1ccc(NC(=O)CN(C)C(=O)CSc2nc3ccccc3s2)cc1 | -7% | 3% |
| CN1CCC(N2CCN(c3cccc(C(F)(F)F)c3)CC2)CC1 | i | -9% |
| CC1CCN(Cc2nnnn2-c2cccc([N+](=O)[O-])c2)CC1 | -18% | -7% |
| COc1cccc(/C=C2\C(=O)N(c3cccc(C)c3)C(=O)c3ccccc32)c1 | i | -9% |
| Cc1c(NS(=O)(=O)c2cccc(C(=O)Nc3ccc(SC(F)F)cc3)c2)c(=O)n(-c2ccccc2)n1C | ? | -30% |
| CCc1ccc(NC(=O)c2onc(C)c2Cl)cc1 | -13% | -17% |
| C[C@@H]1CN([C@@H](C)CO)C(=O)c2cccc(NS(=O)(=O)c3ccc(F)cc3)c2O[C@H]1CN(C)C(=O)NC1CCCCC1 | ? | -7% |
| O=C(NC1=NCCS1)Nc1ccccc1 | -10% | -14% |
| CCn1cc(C(=O)O)c(=O)c2cnc(N3CCN(C(=S)Nc4ccccc4C(F)(F)F)CC3)nc21 | ? | -8% |
| COc1ccc(S(=O)(=O)N(C)CC(=O)Nc2c(F)cccc2F)cc1 | -20% | -7% |

Continued.
SMILES	Vaccinia mCherry	Vaccinia Venus
CCCC[C@@H]1CNC(=S)N1CCc1cccc2ccccc12	?	-18%
O=C(COC(=O)/C=C/c1cccc(F)c1)NNC(=O)c1ccccc1	-19%	-4%
CCN(C(=O)CN1CCN(C)CC1)c1cccc2ccccc12	.	0%
O=C(/C=C\c1ccc2c(c1)OCO2)NC1(C(=O)Nc2ccc3c(c2)OCO3)CCCCC1	-12%	-5%
CCOC(=O)[C@]12CCCC=C1N(Cc1ccccc1)C(=O)[C@H](CC(=O)NCc1ccc(C)o1)C2	-21%	5%
CCOC(=O)C1CCN(C(=O)CCc2c(C)nc3cc(-c4ccccc4)nn3c2C)CC1	0%	-12%
CCOc1cc(/C=C/c2nc3cc(C)c(C)cc3s2)ccc1OCC(=O)N1CCOCC1	-11%	-2%
CCC1CCc2nc3sc(C(=O)Nc4ccc(F)cc4F)c(N)c3cc2C1 (centres undefined)	-8%	3%
CN(C)CCCn1c2c(c(SCC(=O)Nc3ccc4c(c3)OCO4)nc1=O)CCC2	i	-10%
O=C1c2cc(Br)ccc2N(Cc2ccc(Br)cc2)S(=O)(=O)C1c1cc(Cl)c(Cl)cc1[N+](=O)[O-] (centres undefined)	i	-11%
NC(=S)Nc1cccc(O)c1	-1%	-1%
COc1cc(NC(=O)COC(=O)CC(NC(C)=O)c2ccccc2)cc(OC)c1 (centres undefined)	8%	-2%
COc1ccc(CN2CCC[C@]3(N[C@H](c4ccc(C)cc4)[C@@H]4C(=O)N(C)C(=O)[C@@H]43)C2=O)cc1	-11%	5%
CCN(CC(=O)NCc1cccs1)C(=O)c1ccc(C)o1	i	-9%
N#Cc1c(-c2ccc(F)cc2)cc(C2CC2)nc1SCC(=O)c1cccs1	-9%	-12%
COc1cc2ncnc(N3CCN(C(=O)Nc4ccc(Oc5ccccc5)cc4)CC3)c2cc1OC	?	?
CC1(C(=O)NS(=O)(=O)c2ccc(F)cc2F)CCN1C(=O)c1ccccc1CCc1ccccc1 (centres undefined)	16%	-2%
COc1ccc([N+](=O)[O-])c(OC)c1C(=O)Nc1ccc(F)cc1F	-13%	-18%
Cc1cc(C)c(C#N)c(SCC(=O)Nc2cccc(S(=O)(=O)N3CCCC3)c2)n1	-3%	-30%
O=C(NNS(=O)(=O)c1ccc(F)cc1)c1ccc(S(=O)(=O)N2CCCCC2)cc1	-13%	-7%
O=C(CN1C(=O)C2CCCCC2C1=O)Nc1nccs1 (centres undefined)	-11%	-1%
COCCn1c(SCC(=O)Nc2ccc(OC)c(S(N)(=O)=O)c2)nc2ccccc21	-13%[7.34 µM]	-5%[7.34 µM]
CCn1c(SCC(=O)NCCc2ccc(Cl)cc2)nnc1-c1cccs1	-2%	-8%
CCOc1ccccc1NC(=O)C(=O)NCC1CCCN1CC (centres undefined)	i	-10%
CCOC(=O)c1sc2nc(CC(=O)OC)nc(NCCN3CCOCC3)c2c1C	i	-10%
COc1cc(OC)cc(-c2nc3nc(C)c(CCC(=O)NCCC(C)C)c(C)n3n2)c1	6%	-3%
CC(Oc1ccc([N+](=O)[O-])cc1)C(=O)NCCCN1CCOCC1 (centres undefined)	-7%	4%
CCOC(=O)c1ccc(NC(=O)c2nc[nH]c2C(=O)N(C)CCO)cc1	-14%	11%
CC1CC(C)(C)CC2(C1)NC(=O)N(CC(=O)N(Cc1ccccc1)c1ccccc1)C2=O (centres undefined)	-10%	-5%
COC(=O)[C@@](C)(O)C1(C(=O)SC(C)(C)C)CC1	i	-10%
C[C@@H]1CCCCCCCCC(=O)OCCN(C(=O)OC(C)(C)C)[C@H](C)CCCCCCCCC(=O)OCCN(C(=O)OC(C)(C)C)[C@H](C)CCCCCCCCC(=O)OCCN1C(=O)OC(C)(C)C	-9%	-6%
Cc1ccc(CCNC(=O)C2CCN(S(=O)(=O)c3c(C)nn(C)c3C)CC2)cc1	1%	-5%
Cn1cccc1C(=O)NC(=O)CSc1nnc(C2CC2)n1-c1ccccc1	-3%	0%
O=C(CCCN1C(=O)NC2(CCCC2)C1=O)Nc1ccc(Cl)c(S(=O)(=O)N2CCOCC2)c1	-19%	-9%
O=C(NCc1ccccn1)C(=O)NCC1OCCN1S(=O)(=O)c1ccc([N+](=O)[O-])cc1 (centres undefined)	-8%	-23%
Oc1c(Cl)c(Cl)c2ncccc2c1Cl	-9%	-2%
CC1CCN(C(=O)c2cc(-c3ccc(Br)cc3)on2)CC1	i	-23%
CCC(Oc1ccccc1)C(=O)Nc1cc(C(F)(F)F)ccc1N1CCOCC1 (centres undefined)	-7%	-23%
COc1ccc(-c2nc3ccc(Br)cn3c2Cc2ccsc2)cc1OC	i	-10%
COc1ccc(Nc2nc(NCCN3CCOCC3)nc(Nc3ccc(OC)cc3)n2)cc1	-21%&13%	-16%&-21%
CCCn1c(SC/C(O)=C(\C#N)c2nc3ccccc3[nH]2)n[nH]c1=O	i	15%
CCOC(=O)CC(N)c1ccc2c(c1)OCO2 (centres undefined)	i	-15%
CCN1C(=O)[C@H]2[C@@H](c3ccc(C)cc3)N3C(=O)N(c4ccc(OC)cc4)C(=O)[C@@]3(Cc3ccc(Cl)cc3)[C@H]2C1=O	-20%	-24%
O=C1CC(NS(=O)(=O)c2ccccc2)CN1c1ccc2c(c1)OCCO2 (centres undefined)	-8%	0%
CCN(Cc1nc2cc(Cl)ccc2c(=O)[nH]1)C(=O)c1cc(C2CC2)nn1-c1ccccc1	-2%	-11%
Cc1ccc(S(=O)(=O)NC(C)(C)C)cc1C(=O)OCC(=O)N1CCCC1=O	i	-17%
COc1ccc([N+](=O)[O-])cc1NC(=O)Nc1ccccc1	-22%	-21%
O=C(CN1CCN(c2ccccn2)CC1)N1CC(O)CO1 (centres undefined)	i	-9%
Cc1ccccc1NC(=O)c1cccc(N2C(=O)C3CCC(C)CC3C2=O)c1 (centres undefined)	-10%	4%
NC(N)=N/N=C/c1cccc([N+](=O)[O-])c1O	i	9%
Later entries
SMILES	Vaccinia mCherry	Vaccinia Venus
CC(C)Oc1cccc(C(=O)C2CCCN(C(=O)CCn3cnnn3)C2)c1 (centres undefined)	i	-2%
Cc1ccc(C)c(N(C(=O)CNC(=O)c2ccco2)C(C(=O)NC2CCCC2)c2ccncc2)c1 (centres undefined)	-2%	-2%
COc1ccc(NC(=O)CCSc2nc(-c3ccco3)cc(C(F)(F)F)n2)cc1OC	-9%	3%
COc1ccc(-c2oc3c(c2C#CC2(O)CCCCC2)C(OC)CCC3)cc1 (centres undefined)	-11%	-11%
CC1(C)O[C@@H]1COc1c2ccoc2cc2oc(=O)ccc12	i	1%
S=C(NCCSCc1ccc(Cl)cc1)Nc1ccccc1	-29%	-26%
CC1CCN(c2nc(N(C)c3ccccc3)nc(N)c2[N+](=O)[O-])CC1	i	1%
COc1cc(=O)n2c(c1C(=O)N(C)Cc1nonc1C)CCN(Cc1ccccc1Cl)CC2	-7%	4%
Cn1c(CN2CCN(C(=O)c3ccc(F)cc3)CC2)nc2cc([N+](=O)[O-])ccc21	?	-25%
O=C(COC(=O)c1ccc([N+](=O)[O-])o1)Nc1cccc(S(=O)(=O)N2CCOCC2)c1	-2%	-10%
Cc1cc(=O)c2cc(C(=O)Nc3cccc(C)c3C)ccc2[nH]1	-14%	-11%
Cc1ccc(CCNC(=O)C2=CCN(S(=O)(=O)c3ccccc3)CC2)cc1	-21%	-18%
C=CC[C@H](CC(=O)OC(C)(C)C)C(=O)OC[C@@H]1CCCN1C(=O)[C@@H](CC=C)CC(=O)NCCO	-22%	-13%
O=C(CN1CCOCC1)Nc1nc(-c2ccccc2)cs1	-5%	12%
CCc1nc2ccc(C(=O)NCCCn3ccnc3)cn2c1N(CC)CCOC	43%[activator]	7%
N#Cc1ccccc1N=C1CCCN1Cc1ccccc1	-26%	-20%
O=C(CNc1ccccc1)c1ccc([N+](=O)[O-])cc1	-2%	-3%
O=C(c1ccco1)N1CCN(C(=O)c2cnn3c(C(F)(F)F)cc(-c4cccs4)nc23)CC1	-13%	-25%
O=C(CCNS(=O)(=O)c1cccc2nonc12)N1CCN(c2cccc(Cl)c2)CC1	.	?
O=C(CCN1C(=O)c2ccccc2C1=O)NC1=NCCS1	-20%	?
COc1cc2c(cc1OC)CN(C(=O)c1ccc(Br)o1)CC2	?	-23%
COc1ccccc1CNc1n[nH]c(NCc2ccccc2OC)n1	.	-2%
CCOC(=O)C1CCCN(C(=O)C2CCCN(S(C)(=O)=O)C2)C1 (centres undefined)	-13%	-3%
COC(=O)c1sccc1NC(=O)/C=C\c1ccc(Cl)cc1Cl	-17%	-10%
OCC1CCCC(n2cnc3c(=S)nc[nH]c32)O1 (centres undefined)	i	-7%
CCC(NC(=O)c1ccccc1NC(=O)c1ccco1)C(=O)NNC(=O)c1ccc(OC)cc1 (centres undefined)	0%	-10%
Cc1c(CCOC(=O)c2ccc(N3CCOCC3)c([N+](=O)[O-])c2)sc[n+]1CC#N	?	-26%
CSc1cccc(NC(=O)c2cnn3ccccc23)c1	-10%	-19%
Cc1ccccc1N1CCN(CC(=O)Nc2nccs2)CC1	-22%	-8%
C/C(=N\NC(=O)COc1ccc([N+](=O)[O-])cc1)C(C)(C)C	-5%	-13%
O=C(NCC1CCCO1)c1cccc(-n2cnnn2)c1 (centres undefined)	-2%	-3%
COc1ccc(S(=O)(=O)Nc2ccc3c(c2)C(=O)N([C@H](C)CO)C[C@H](C)[C@@H](CN(C)S(=O)(=O)c2cccs2)O3)cc1	-17%	?
COc1ccc(Sc2nnc(-c3ccccc3)cc2C#N)cc1	.	?
CC(C)(C)NC(=O)CN(Cc1ccco1)C(=O)CCC(=O)Nc1nccs1	-1%	0%
O=C(OCC#CCSc1nnc(-c2ccc(Br)cc2)o1)c1cccs1	-22%	-23%
O=C(COc1ccc(F)cc1)N(Cc1cccs1)C1CCS(=O)(=O)C1 (centres undefined)	i	-4%
